From PubChem BioAssay
ClpP mod = qHTS Assay for Activators of ClpP | AID 651965, 2013 | hit rate 1.9% among 340,000 | ATP-dependent Clp protease proteolytic subunit (Bacillus subtilis (strain 168)), P80244 | purified B. subtilis ClpP, FRET peptide cleavage, 20 min | Potency, µM (highest dose often 57.5 µM), without a hit: at the highest dose activity change, negative = active; active = well fitted falling curve with a large enough effect; inconclusive = small, poorly fitted or top-dose-only effect; inactive = no such curve, though single readings can be large or run the other way; also: potency is read from the fitted curve at half-maximal effect; the source files actives as falling curves though it sought activators and does not explain the sign; nearly all actives have a fitted effect of over 65% in size; many hits overshoot -100%
Target sequence (P80244 whole entry, looked up): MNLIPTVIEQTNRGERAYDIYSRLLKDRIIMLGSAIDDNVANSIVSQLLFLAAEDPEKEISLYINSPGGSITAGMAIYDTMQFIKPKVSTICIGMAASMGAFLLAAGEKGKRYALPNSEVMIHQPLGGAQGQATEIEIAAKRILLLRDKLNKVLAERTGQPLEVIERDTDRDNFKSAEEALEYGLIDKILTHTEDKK
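Purified B. subtilis ClpP, 10 microg/mL final in Tris/HCl pH8 with KCl, BSA, glycerol and Tween-20, cleaved an Abz/nitrotyrosine-quenched decapeptide. Fluorescence (ex 320, em 430) was read at 0 and 20 min at room temperature. Delta was normalized to 5.8 microM ADEP and DMSO/no-enzyme controls.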
Sfp PPTase inh = inhibitors of Bacillus subtilis Sfp phosphopantetheinyl transferase; Q9F4F7; Biochemical Sfp PPTase activity, qHTS; Potency, µM, for inactives: max response, negative = inhibition, actives largely listed as inhibitors; hit rate 3.5% among 310,000; AID 1490; active = well fitted inhibition curve with a large enough effect; inconclusive = small, poorly fitted or top-dose-only effect, or another doubt; inactive = no such curve, though single readings can be large or run the other way;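 also: the enzyme is Sfp with the accession as filed and its product quenches rhodamine fluorescence; potency is read from the fitted curve at half-maximal effect; 0% = enzyme reaction without inhibitor and -100% = no enzyme wells; top concentration of the series not given in the record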
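Reaction rates are the 30-min fluorescence difference (ex 525, em 598 nm) in wells containing 15 nM Sfp, 5 uM rhodamine-CoA and 12.5 uM BHQ-2-YbbR at pH 7.6 with 10 mM MgCl2.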
CtBP-E1A inh = inhibitors of CtBP/E1A interaction; AlphaScreen GST-E1A/His-CtBP binding, 1536-well; active compounds read low; control for the full effect not named in the record; activity change, % (no concentration beside the values); hit rate 0.49% among 340,000; in the data active means activity change below about -65%; inconclusive means about -30% to -65%; inactive means above about -30%; also: % is scaled to controls: 0 for no effect and ±100 for the full control effect
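In 5 uL wells, 23 nL compound meets equimolar GST-E1A and His-CtBP (5X stock 125 nM each) for 2 h, 37 °C. Beads (5X, 50 ug/mL) then 1 h, 37 °C, dark.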
TRPV1 potentiator = human TRPV1 potentiation. Q8NER1. TRPV1-expressing cells, Fluo-8 calcium influx, capsaicin EC20 potentiation; host cell line not named in the record; control for the full effect not named in the record. potentiation, % at 8.33 µM. hit rate 0.02% among 320,000. AID 540277; active means potentiation above 80%; inconclusive means 30% to 80%; inactive means below 30%; also: 0% is about no effect
Target sequence (Q8NER1 whole entry, looked up): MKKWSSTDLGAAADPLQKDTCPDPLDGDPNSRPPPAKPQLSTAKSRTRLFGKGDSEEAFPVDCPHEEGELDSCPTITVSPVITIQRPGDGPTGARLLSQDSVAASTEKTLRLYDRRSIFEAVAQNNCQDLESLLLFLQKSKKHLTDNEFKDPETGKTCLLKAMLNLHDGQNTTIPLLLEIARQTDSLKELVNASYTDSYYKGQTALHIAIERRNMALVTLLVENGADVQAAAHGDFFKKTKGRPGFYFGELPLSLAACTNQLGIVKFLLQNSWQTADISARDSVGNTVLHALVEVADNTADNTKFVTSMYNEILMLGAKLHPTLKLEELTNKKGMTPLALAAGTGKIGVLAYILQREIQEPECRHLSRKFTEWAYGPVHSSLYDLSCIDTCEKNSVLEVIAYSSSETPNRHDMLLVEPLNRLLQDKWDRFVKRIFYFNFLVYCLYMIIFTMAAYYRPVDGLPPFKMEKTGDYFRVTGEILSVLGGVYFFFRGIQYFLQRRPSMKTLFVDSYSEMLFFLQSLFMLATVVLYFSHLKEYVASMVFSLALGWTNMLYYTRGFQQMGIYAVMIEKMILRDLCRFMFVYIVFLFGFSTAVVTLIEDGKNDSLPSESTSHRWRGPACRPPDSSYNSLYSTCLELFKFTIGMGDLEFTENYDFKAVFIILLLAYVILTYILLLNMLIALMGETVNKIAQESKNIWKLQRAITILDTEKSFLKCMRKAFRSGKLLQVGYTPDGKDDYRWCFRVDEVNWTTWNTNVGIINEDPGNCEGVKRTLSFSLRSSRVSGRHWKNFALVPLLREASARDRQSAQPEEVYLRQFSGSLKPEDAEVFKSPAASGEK
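Cells expressing TRPV1 were dye-loaded with Fluo-8 and read kinetically: 10 s baseline, 3 min after compound (agonist portion), then 2 min after EC20 capsaicin (allosteric enhancer portion). Calcium-bound dye fluorescence at 480/520 nm.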
gsp antag = antagonists of gsp mutant (McCune-Albright syndrome); gsp-mutant cells, cAMP HTRF, 30 min; control for the full effect not named in the record; Potency, µM (top dose mostly 76.9 µM), inactives show at the top dose activity change, negative = inhibition, actives largely listed as inhibitors; hit rate 0.4% among 340,000; AID 624288; active = falling curve of any shape with a large fitted effect; inconclusive = falling curve, mostly with a smaller effect; inactive = flat or rising curve; cell line not stated here;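 also: intracellular cAMP measured with PDE inhibitor Ro 20-1724 present during compound exposure; potency is read from the fitted curve at half-maximal effect; % is scaled to controls: 0 for no effect and ±100 for the full control effect; nearly all actives have a fitted effect of over 65% in size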
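G418-selected cells were plated in DMEM/10% FBS for 16-24 h at 37C, then treated with compounds plus the PDE inhibitor […] (300 uM solution added) for 30 min at 37C. Intracellular cAMP was measured by HTRF after 30 min lysis at room temperature.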
Menin MLL FP FL = menin-MLL binding inhibition, fluorescein peptide; 290,000 tested, under 10 active; FP activity change, % at 61.4 µM; Fluorescence polarization, fluorescein-MLL peptide displacement from menin; AID 1766; inconclusive = falling polarisation curve, or a change in total fluorescence; inactive = total fluorescence flat and polarisation flat or rising; no compound was filed as active; the % refers to the polarisation; negative = inhibition;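 also: % of control where 0% means no effect; inhibitors lower the polarisation; unlabelled MLL peptide was the positive control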
gsp ag = activates gsp, the McCune-Albright syndrome mutation. Potency, µM (highest dose often 76.9 µM), for inactives: at the top dose activation (cAMP increase), hits mostly activators. hit rate 0.13% among 340,000. AID 624287. gsp mutant cells, cAMP HTRF, 30 min; control for the full effect not named in the record; active = well fitted activation curve with a large enough effect; inconclusive = small, poorly fitted or top-dose-only effect, or another doubt; inactive = no such curve, though single readings can be large or run the other way; cell line not stated here;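 also: phosphodiesterase inhibitor Ro 20-1724 added with compounds to block cAMP breakdown; potency is read from the fitted curve at half-maximal effect; nearly all actives have a fitted effect of over 60% in size; about a fifth of the inactives were tested at one dose only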
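Cells stably selected in G418 were plated at 2000/well, grown 16-24 hr, then given compounds in DMSO with the PDE inhibitor […] (300 uM solution added) for 30 min at 37C; cAMP was read by HTRF.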
Numbers without * were called inactive; ? = inconclusive; · = not tested or not shown; & = joins results of further samples; [ ] = remark or other dose. This is a random part of the collection, and some 5.3% of all compounds hit somewhere here.

SMILES	ClpP mod	Sfp PPTase inh	CtBP-E1A inh	TRPV1 potentiator	gsp antag	Menin MLL FP FL	gsp ag
O=c1oc(CCCO)cc2ccc(C#Cc3cccnc3)cc12	4.1%	·	-1.8	·	-26.5%	·	-68.3%[inhibitor]
O=C(CCS(=O)(=O)c1ccccc1)Nc1ccccc1-c1nc2ccccc2s1	·	-3.1%	3.5	19.4	6.3%	1.3	-0.9%[15.4 µM]
CC(=O)Nc1ccc(C(=O)NCC2CCCCC2)cc1	-2.9%	5.5%	1.9	?	-1.3%	0.9	?
Cc1noc(C)c1COC(=O)c1ccccc1Oc1ccccc1	0.5%	-3.1%	24.1	3.0	-4.9%	2.1	?
CC1CCCCN1C(=O)N[C@@H](Cc1ccccc1)C(=O)O (stereo not given in full)	0.6%	7.3%	19.3	-5.6	7.7%	-2.0	17.4%
S=C(Nc1cccc(Cl)c1Cl)N1CCC2(CC1)OCCO2	0.3%	5.9%	2.1	-3.9	13.3%	1.6	-20.4%[15.4 µM]
CCOCCn1c(=O)c2c(nc3n2CCN3c2ccc(CC)cc2)n(C)c1=O	-7.6%	·	-4.1	·	-1.9%	·	-65.9%[inhibitor]
O=C(NCC1c2ccccc2CCN1C(=O)CN1C(=O)c2ccccc2C1=O)C1CCCCC1 (stereo not given)	3.8%	4.5%	1.2	-0.6	-9.3%	2.4	-31.9%[inhibitor]
Cc1nn(C)c(C)c1/C=C/C(=O)c1ccc(Cl)cc1Cl	·	0.4%	0.0	-15.3	·	2.1	-1.5%[15.4 µM]
O=C(N/N=C/c1ccccn1)c1cc(C2CC2)nc2ccccc12	·	-20.0%	?	-7.2	9.0%	7.3	-12.3%[15.4 µM]
O=C(CCCSCCCC(=O)NN=Cc1ccccc1)NN=Cc1ccccc1	·	·	-24.5	·	?	·	-37.7%
CCOC(=O)c1ccc(NC(=O)NC2CC3CCC(C2)N3)cc1 (stereo not given)	-2.4%	-19.6%	-4.4	-5.0	-10.6%	-1.6	-6.2%
CC(C)c1ccc(OCc2ccc(C(=O)N3CCN(c4ccccn4)CC3)cc2)cc1	-6.7%	-14.7%	-0.1	3.1	-9.0%	3.2	43.1%
Cc1ccccc1-c1nnc(SCc2ccccc2)o1	1.4%	0.9%	58.6	-4.0	-7.8%	-0.3	-1.3%
CCOc1ccc(N2CSC(=S)N(c3ccc(OCC)cc3)C2)cc1	2.5%	35.5µM*	·	0.2	-6.2%	0.0	-8.0%
COc1cccc(/C=C(/CC(=O)Nc2ccc(N3CCOCC3)cc2)c2nc3ccccc3s2)c1	-1.5%	-17.3%	-15.4	4.2	-2.5%	16.7	-1.7%[15.4 µM]
CCOC(=O)c1cnc(SCC(=O)N2CCN(C(=O)c3ccco3)CC2)nc1N	-2.0%	10.6%	2.8	-3.7	-2.9%	3.7	20.0%
Cc1ccc(C)c(S(=O)(=O)N2CCN(CC(=O)N3CCc4ccccc4C3)CC2)c1	-0.5%	56.2µM*	-2.7	-15.6	-2.9%	-3.1	-0.1%
COc1ccccc1OCCNC(=O)CC(NC(C)=O)c1ccccc1 (stereo not given)	-2.9%	11.6%	8.6	-26.4	-5.4%	·	-35.9%[inhibitor]
O=C1CCCN1CCCNC(=S)Nc1ccc(Br)cc1Cl	1.7%	-1.0%	·	-1.1	2.5%	1.8	-14.5%

Part of the list above, as a markdown table.
| structure | ClpP mod | Sfp PPTase inh | CtBP-E1A inh | TRPV1 potentiator | gsp antag | Menin MLL FP FL | gsp ag |
| --- | --- | --- | --- | --- | --- | --- | --- |
| O=C(N/N=C/c1ccccn1)c1cc(C2CC2)nc2ccccc12 | · | -20.0% | ? | -7.2 | 9.0% | 7.3 | -12.3%[15.4 µM] |
| O=C(CCCSCCCC(=O)NN=Cc1ccccc1)NN=Cc1ccccc1 | · | · | -24.5 | · | ? | · | -37.7% |
| CCOC(=O)c1ccc(NC(=O)NC2CC3CCC(C2)N3)cc1 (stereo not given) | -2.4% | -19.6% | -4.4 | -5.0 | -10.6% | -1.6 | -6.2% |
| CC(C)c1ccc(OCc2ccc(C(=O)N3CCN(c4ccccn4)CC3)cc2)cc1 | -6.7% | -14.7% | -0.1 | 3.1 | -9.0% | 3.2 | 43.1% |
| Cc1ccccc1-c1nnc(SCc2ccccc2)o1 | 1.4% | 0.9% | 58.6 | -4.0 | -7.8% | -0.3 | -1.3% |
| CCOc1ccc(N2CSC(=S)N(c3ccc(OCC)cc3)C2)cc1 | 2.5% | 35.5µM* | · | 0.2 | -6.2% | 0.0 | -8.0% |
| COc1cccc(/C=C(/CC(=O)Nc2ccc(N3CCOCC3)cc2)c2nc3ccccc3s2)c1 | -1.5% | -17.3% | -15.4 | 4.2 | -2.5% | 16.7 | -1.7%[15.4 µM] |
| CCOC(=O)c1cnc(SCC(=O)N2CCN(C(=O)c3ccco3)CC2)nc1N | -2.0% | 10.6% | 2.8 | -3.7 | -2.9% | 3.7 | 20.0% |
| Cc1ccc(C)c(S(=O)(=O)N2CCN(CC(=O)N3CCc4ccccc4C3)CC2)c1 | -0.5% | 56.2µM* | -2.7 | -15.6 | -2.9% | -3.1 | -0.1% |
| COc1ccccc1OCCNC(=O)CC(NC(C)=O)c1ccccc1 (stereo not given) | -2.9% | 11.6% | 8.6 | -26.4 | -5.4% | · | -35.9%[inhibitor] |
| O=C1CCCN1CCCNC(=S)Nc1ccc(Br)cc1Cl | 1.7% | -1.0% | · | -1.1 | 2.5% | 1.8 | -14.5% |

Following part.
SMILES	ClpP mod	Sfp PPTase inh	CtBP-E1A inh	TRPV1 potentiator	gsp antag	Menin MLL FP FL	gsp ag
CCCCN(C(=O)CCC(=O)Nc1cc(C)on1)C(C(=O)NC(C)(C)C)c1ccccc1Cl (stereo not given)	·	25.8%	3.7	5.8	-4.4%	-1.9	-23.5%
Cc1ccc(C(=O)Nc2nnc(S(=O)(=O)N3CCC(C)CC3)s2)cc1	-2.6%	23.3%	0.8	-11.9	9.2%	-1.1	?
O=C(NCC1CCCN(C(=O)CN2CCCCC2)C1)c1ccccc1Cl (stereo not given)	·	15.1%	-2.8	20.8	3.5%	3.2	3.4%
COC(=O)Cc1c[nH]c2ccc(OCC(O)CNC(C)C)cc12 (stereo not given)	-7.9%	12.6%	3.5	2.3	1.9%	-1.3	-37.8%
O=C(Nc1cccc(NC(=O)c2ccc(Br)cc2)c1)c1ccccc1	0.5%&-0.8%	9.1%	18.9	-1.7	-6.0%	-1.4	12.1%[15.4 µM]
O=C(Nc1cc(C(F)(F)F)ccc1N1CCCCC1)c1ccc(Br)o1	?	3.9%	0.2	-7.8	2.5%	0.9	17.9%
COc1cccc(CNS(=O)(=O)c2csc(C(N)=O)c2)c1	-0.3%	11.4%	6.5	0.0	11.6%	-1.4	25.9%
O=S(=O)(Cc1ccccc1)c1nc2ccccc2n1Cc1ccccn1	0.0%	-19.8%	-2.5	-7.9	-1.3%	-1.0	11.0%[15.4 µM]
CC1CC1C(=O)OCc1cc(=O)n2cc(Br)ccc2n1 (stereo not given)	-15.3%	7.4%	-0.3	-35.0	5.0%	-1.3	?
CC(C)CCn1c(=O)c2ccccc2c2ccccc2c1=O	-3.1%	11.8%	12.1	-4.6	-3.7%	0.5	-16.9%
O=C(Nc1ccc2oc(-c3ccccc3F)nc2c1)c1ccc2c(c1)OCCO2	28.2µM*	-8.1%	-27.8	6.5	?	5.0	8.1%
O=C(Cn1c(C2CC2)nc2ccccc2c1=O)Nc1ccc(Br)cc1	-1.0%	0.0%	4.2	?	14.4%	-1.1	2.8%
CCN(CC)S(=O)(=O)c1cccc(NC(=O)COc2ccc(F)cc2Br)c1	·	21.4%	5.3	-0.1	-19.5%	1.0	27.0%[15.4 µM]
O=C(O)c1ccc(CNCc2cccc(Cl)c2)cc1	·	16.0%	0.0	2.4	3.2%	-1.0	4.9%[15.4 µM]
COc1ccc(C(=O)CSc2nc(SC)ns2)cc1OC	?	-10.9%	-2.7	19.9	-10.1%	1.9	14.6%
Fc1ccc(-c2cc(C(F)(F)F)nc(-n3cccn3)n2)cc1	-0.3%	6.1%	-3.8	24.6	-9.3%	-1.7	?
CCOc1cc2c3c(c1)C1(Nc4ccccc4S1)C(=O)N3C(C)(C)CC2C (stereo not given)	0.3%	-28.8%	?	4.1	-9.4%	-1.4	1.9%
Fc1cnc(Cl)nc1NC1CCCCC1	1.3%	16.3%	·	-4.7	3.3%	6.0	-19.1%
CCOc1cc(/C=C2\C(=N)N3N=C(C)SC3=NC2=O)ccc1OCCOc1cccc(OC)c1	-0.4%	-2.2%	1.7	-5.6	?	1.0	-1.2%
COC(=O)c1ccc(C(=O)OC)c(NC(=O)CCC(=O)O)c1	28.2µM*	6.3%	8.2	-1.8	9.9%	-2.2	-6.4%
O=C(CSc1nnc(-c2ccc(Br)cc2)n1C1CCCCC1)N1CCCC1	0.2%	4.2%	4.0	-6.9	16.5%	-0.6	4.0%
Nc1cc(=O)[nH]c(SCC(=O)Nc2ccc3c(c2)CCC3)n1	?	7.1%	-9.3	4.0	-10.8%	1.5	3.2%[15.4 µM]
CC(C)(C)c1ccc(/C=C2\Oc3cc(OC(=O)N4CCOCC4)ccc3C2=O)cc1	-0.8%	5.8%	11.7	-3.4	-7.3%	-2.2	0.0%
COc1cc2oc(-c3ccc(O)cc3)cc(=O)c2c(O)c1OC	-2.0%	-7.4%	-10.8	-5.5	-16.2%	-4.1	-30.5%[inhibitor]
C/C(=N\NC(=O)c1cccc(S(=O)(=O)N2CCOCC2)c1)c1ccc(O)cc1	-2.6%	·	·	-10.3	-1.9%	·	19.5%
CCOc1ccc(NC(=O)N(CCC(C)C)C2CCN(C(C)=O)CC2)cc1	-0.6%	11.3%	-6.4	13.6	2.8%	0.0	-65.0%[inhibitor]
CC(C)C[C@@H](C(=O)NCc1ccco1)N1C(=O)N2CCc3c([nH]c4ccccc34)[C@@]2(C)C1=O	-1.6%	1.9%	-14.1	22.6	-17.7%	4.5	·
C(=C\c1ccco1)/C=N/n1cnnc1	-4.3%	?	-4.9	5.0	1.8%	?	-3.3%
